SARS PLP yeast: SARS-CoV PLP inhibition in yeast. S. cerevisiae expressing SARS-CoV PLpro, growth rescue; control for the full effect not named in the record. Potency, µM (titrated, usually from 32.9 µM), for the others: top-dose activity, positive = growth rescue. 330,000 tested, 0.19% active; also: 0% is about no effect; nearly all actives have a fitted effect of over 55% in size; growth read by luminescence after 48 h
NS1 inh: influenza NS1 inhibition; AID 2326; Potency, µM (doses to about 46.1 µM), inactives show at the highest dose activity, positive = more growth; S. cerevisiae slowed by influenza A NS1, growth recovery by OD600; 270,000 tested, 0.4% active; also: actives are rising curves; nearly all actives have a fitted effect of over 50% in size
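A cell-based growth assay was used: compounds that relieve NS1-induced slow growth of budding yeast raise OD600. Assay medium was yeast nitrogen base with ammonium sulphate and -URA supplement, pH 6.0, with 2% galactose.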
Cruzain Triton: inhibitors of Trypanosoma cruzi cruzain with detergent | Potency, µM, for inactives: max response, negative = inhibition, usual class: inhibitors | 200,000 tested, 0.43% active | purified cruzain, Z-FR-AMC fluorescence, 0.01% Triton | AID 1478 | P25779; active = well fitted curve in the direction sought with a large enough effect; inconclusive = small, poorly fitted or top-dose-only effect, or another doubt; inactive = no such curve, though single readings can be large; an effect the other way counts as inactive or inconclusive;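 also: plate controls were neutral wells for no effect and buffer without enzyme for full effect; nearly all actives have a fitted effect of over 40% in size; top concentration of the series not given in the record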
Target sequence (P25779 123-467 limits assumed): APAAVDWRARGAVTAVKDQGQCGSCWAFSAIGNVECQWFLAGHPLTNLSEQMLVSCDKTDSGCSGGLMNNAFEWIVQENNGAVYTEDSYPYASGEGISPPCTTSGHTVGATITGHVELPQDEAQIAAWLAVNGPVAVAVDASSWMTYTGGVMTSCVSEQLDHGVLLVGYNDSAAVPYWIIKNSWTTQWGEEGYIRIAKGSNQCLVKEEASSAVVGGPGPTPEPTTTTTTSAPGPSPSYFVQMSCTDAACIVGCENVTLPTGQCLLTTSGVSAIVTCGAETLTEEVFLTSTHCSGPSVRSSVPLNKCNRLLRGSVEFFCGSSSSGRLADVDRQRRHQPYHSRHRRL
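Steps: dispense cruzain (1.5 nM final) in acetate buffer pH 5.5 with DTT and 0.01% Triton X-100; pin-transfer compounds; incubate 15 min RT; add Z-FR-AMC (2 uM final); read fluorescence every 30 s, using the 60 s intensity change.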
RE007 growth inh: less growth of the S. pombe RE007 Vpr strain. S. pombe RE007 Vpr strain, BacTiter-Glo ATP luminescence, 24 h; control for the full effect not named in the record. Potency, µM (top dose mostly 92.2 µM), without a hit: at the highest dose activity change, negative = less growth. 360,000 tested, 0.21% active. AID 651644; active = well fitted falling curve with a large enough effect; inconclusive = small, poorly fitted or top-dose-only effect; inactive = no such curve, though single readings can be large or run the other way;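 also: % is scaled to controls: 0 for no effect and ±100 for the full control effect; nearly all actives have a fitted effect of over 50% in size; the assay follows cell death caused by Vpr and the record does not say whether a fall means rescue or toxicity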
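Fission yeast strain RE007, carrying one chromosomally integrated HIV-1 vpr copy, was seeded at OD 0.01 in PMG+AL medium with 23 nL pinned compound. After 24 h at 30 °C and 99% humidity, viability was read by BacTiter-Glo luminescence.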
Lassa entry inh: blocks Lassa virus binding to or entry into cells. Lassa virus pseudotype entry inhibition, cell reporter; control for the full effect not named in the record. Potency, µM (top dose mostly 37.9 µM), for the others: at the highest dose activity change, negative = inhibition, actives largely listed as inhibitors. AID 540256. 300,000 tested, 1.2% active; active means well fitted inhibition curve with a large enough effect; inconclusive means small, poorly fitted or top-dose-only effect, or effect the other way; inactive means flat fitted curve, though single readings scatter; tested in HEK293 cells; also: % is scaled to controls: 0 for no effect and ±100 for the full control effect; nearly all actives have a fitted effect of over 50% in size; luciferase read-out
Cruzain inh noDet: blocks cruzain activity in detergent-free assay | P25779 | purified cruzain, Z-FR-AMC fluorescence, no detergent | Potency, µM, for inactives: max response, negative = inhibition, hits mostly inhibitors | 200,000 tested, 2.3% active; active = well fitted curve in the direction sought with a large enough effect; inconclusive = small, poorly fitted or top-dose-only effect, or another doubt; inactive = no such curve, though single readings can be large; an effect the other way counts as inactive or inconclusive;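 also: plate controls were enzyme without inhibitor for no effect and buffer without enzyme for full effect; nearly all actives have a fitted effect of over 40% in size; top concentration of the series not given in the record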
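Detergent-free condition (0.00005% Triton X-100) in acetate buffer pH 5.5 with DTT. 1.5 nM enzyme and compound were pre-mixed 15 min, then 2 uM Z-FR-AMC substrate added; reaction progress from fluorescence change between first and third reads (60 s).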
Marburg entry inh: Marburg virus entry inhibition; 300,000 tested, 1.8% active; Marburg virus pseudotyped entry inhibition, cell reporter; control for the full effect not named in the record; about a third of the inactives were read at about 46 µM; Potency, µM (titrated, usually from 37.8 µM), for the others: at the highest dose activity change, negative = inhibition, actives largely listed as inhibitors; active = well fitted inhibition curve with a large enough effect; inconclusive = small, poorly fitted or top-dose-only effect, or effect the other way; inactive = flat fitted curve, though single readings scatter; tested in HEK293 cells; about a fifth of its hits are not listed in these tables; also: % is scaled to controls: 0 for no effect and ±100 for the full control effect; luciferase read-out
StopGo reporter: lowers the luciferase signal of an FMDV 2A StopGo reporter. human cells with a luciferase reporter of 2A StopGo recoding; control for the full effect not named in the record. Potency, µM (highest dose often 57.9 µM), inactives show top-dose signal change, negative = less light. 410,000 tested, 1.2% active. AID 1159524; active = well fitted falling curve with a large enough effect; inconclusive = small, poorly fitted or top-dose-only effect; inactive = no such curve, though single readings can be large or run the other way; tested in HEK293T cells; also: % is scaled to controls: 0 for no effect and ±100 for the full control effect; nearly all actives have a fitted effect of over 45% in size; luciferase light after 4 h
The depositor's hits bear a star; ? = inconclusive; / = not tested or not shown; & = joins results of further samples; [ ] = dose if it differs, or a comment. Unless noted, calls follow the shape of the dose curve; as a rule, active means well fitted rising curve with a large enough effect; inconclusive means small, poorly fitted or top-dose-only effect; inactive means no such curve, though single readings can be large or run the other way. Potency is read from the fitted curve at half-maximal effect.

SMILES	SARS PLP yeast	NS1 inh	Cruzain Triton	RE007 growth inh	Lassa entry inh	Cruzain inh noDet	Marburg entry inh	StopGo reporter
COc1ccccc1N(C)S(=O)(=O)c1ccc(C(=O)N2CCC2)cc1	-2%	/	/	2%	3%	/	?	-6%
CCOc1ccc(C(=O)CCNC(Cc2cnc[nH]2)C(=O)O)cc1 (stereo not given)	-2%	5%	-8.8%	-17%	0%	2%	12%	/
CC(OC(=O)C1=COCCO1)C(=O)Nc1ncc(Cl)cc1Cl (stereo not given)	-3%	/	/	-4%	5%	/	10%[46.1 µM]	0%
Cc1cc(S(=O)(=O)NCC(c2ccco2)S(=O)(=O)c2ccccc2)ccc1F (stereo not given)	/	/	-3.6%	/	1%[46.1 µM]	3%	/	71%[activator]
COc1cc(/C=N/N2CCN(C3c4ccccc4-c4ccccc43)CC2)cc(OC)c1OC	10%	7%	-4.5%	0%	-9%	25%	?	?
O=Nc1c2ccc[nH]c-2c2ccc([N+](=O)[O-])cc12	-1%	/	/	4%	-16%[46.1 µM]	/	12%[46.1 µM]	9%
COc1cc(NC(=O)Cn2cnc(S(=O)(=O)N3CCOCC3)c2)cc(OC)c1OC	28%	-1%	/	35%	22%[46.1 µM]	/	9%[46.1 µM]	-2%
CCc1c(C)[nH]c2ccc(C)cc2c1=O	-6%	-11%	5.8%	-23%	?	-6%	?	28%
Cc1cccc(CSc2nc3nc(C)cc(C)n3n2)c1	-2%	-39%	/	5%	/	/	/	13%
C=C1C(C(=O)Nc2cccc(OC)c2)C1C(=O)Nc1cccc(OC)c1 (stereo not given)	1%	/	/	48%	-16%	/	-13%[46.1 µM]	-19%
CCCCc1nc2cc(C(=O)N3CCCCC3COC)ccc2o1 (stereo not given)	3%	-12%	/	6%	?	/	4%	42%[activator]
Cc1cc(C(F)(F)F)nn1Cc1n[nH]c(=S)n1-c1ccc(Cl)cc1	2%	13%	1.7%	-6%	-1%	-1%	?	0%
CCC(C(=O)Nc1nc(C)c(C(=O)OC)s1)c1ccccc1 (stereo not given)	-1%	3%	/	1%	21%[46.1 µM]	/	-11%[46.1 µM]	-19%
CCc1ccc(-c2csc(NC(=O)Oc3ccccc3)n2)cc1	-66%	0%	0.1%	0%	?	13µM*	38%	47%[activator]
COc1ccc(-n2nnnc2SCC(=O)c2ccc3c(c2)OCCO3)cc1	?	19%	-3.4%	-4%	-8%	-7%	14%	-13%
Cc1cc(C(=O)N2CCN(c3ncccc3C#N)CC2)no1	0%	2%	/	-4%	6%	/	-2%	-11%
COc1ccc(/C=C/C2=CC(C)(C)NC(=S)N2)cc1	1%	/	/	5%	/	/	-25%[46.1 µM]	-25%
CN(C(=O)COC(=O)/C=C/c1cn(-c2ccccc2)nc1-c1ccc2c(c1)OCCO2)C1CCS(=O)(=O)C1 (stereo not given)	0%	/	/	-6%	-24%	/	-24%[46.1 µM]	-13%
C=CCNC(=O)C1CC(=O)N(c2ccc(OCC(=O)Nc3ccc(Cl)cc3)cc2)C1 (stereo not given)	1%	8%	/	15%	0%	/	2%[46.1 µM]	-3%
CCOc1ccc(CNC(=S)Nc2ccccc2)cc1Cl	16%	-14%	/	14%	?	/	?	17%
CC(C(=O)O)c1ccc(N2Cc3ccccc3C2=O)cc1 (stereo not given)	-5%	-5%	1.8%&2.5%	-12%	-27%	-1%&8%	?	-52%&29%
COc1ccc(-n2cc(-c3ccccc3)c3c(NCCOCCO)ncnc32)cc1	-1%	-7%	/	-16%	/	/	/	-18%
COc1ccc(CN(C)C(=O)/C=C/c2ccc(S(=O)(=O)N3CCOCC3)cc2)cc1F	2%	/	/	-10%	?	/	-18%	-29%
CCOc1ccc(-n2c(SCC(=O)c3ccccc3)nc3c([nH]c4ccccc43)c2=O)cc1	/	/	-2.4%	/	9%[46.1 µM]	0%	/	-15%
COc1cc2c(cc1OC)C(C)N(C(=O)c1sccc1C)CC2 (stereo not given)	-2%	-25%	/	2%	/	/	/	-8%
C=CCNCC#CCOc1ccc(OC)cc1	9%	-5%	5.9%	0%	-4%	6%	-12%[46.1 µM]	9%
CCCCOc1ccc(CONS(=O)(=O)c2ccc(NC(C)=O)cc2)cc1Cl	-41%	-36%	-9.2%	14%	?	?	?	-16%
CCN(C(=O)CSc1nnc(-c2ccncc2)n1C)C1CCS(=O)(=O)C1 (stereo not given)	8%	11%	2.7%	-25%	-1%	-1%	1%	-18%
CCOc1cc(S(=O)(=O)NC2CC(C)(C)NC(C)(C)C2)ccc1Cl	0%	-2%	/	-6%	/	/	/	-7%
COc1ccc2c(c1)sc1ncc(C(=O)NCc3cccc(Cl)c3)c(=O)n12	/	/	0.6%	/	/	1%	-11%[46.1 µM]	0%
CCCNC(=O)C(=O)NCC(c1ccc2c(c1)OCO2)N1CCN(c2ccc(F)cc2)CC1 (stereo not given)	15%	5%	/	-14%	/	/	/	-24%
O=c1cc(NC2CCCCC2)[nH]c(=O)[nH]1	/	/	/	-8%	4%	/	?	-11%
O=C(Nc1ccc(S(=O)(=O)N2CCCC2)cc1)c1cccnc1	-3%	-1%	-1.0%	8%	17%	0%	8%	-7%
CCOC(=O)C1(CCOc2ccccc2)CCN(CC2CC2)CC1	-6%	-9%	/	2%	-18%	/	?	-5%
O=c1[nH]cc(NCCc2ccccc2)c(=O)[nH]1	-1%	/	/	-5%	-2%	/	17%[46.1 µM]	5%
CCCc1c(C(=O)N/N=C/c2ccc(OCc3ccccc3)c(OC)c2)nnn1-c1nonc1N	0%	-2%	/	-1%	/	/	/	-24%
COc1ccc(/C=N/Nc2ccccc2C(=O)O)cc1	-2%	-45%	/	0%	?	/	?	-55%
CC(C)NC(=S)NN=C1c2ccccc2-c2ccccc21	-1%	/	/	-20%	1%	/	-1%[46.1 µM]	-1%
Cc1cccc(-n2c(=O)c3c(n4cnnc24)-c2ccccc2CC32CCCCC2)c1	-5%	17%	2.8%	0%	-16%	?	-23%	-12%
COc1ccc2nc(NC(=O)c3nc(S(=O)(=O)Cc4ccccc4F)ncc3Cl)sc2c1	/	/	-1.6%	/	?	?	?	?
CSc1ccccc1C(=O)NCCSc1ccc(C)cc1	-4%	-27%	/	-28%	5%[46.1 µM]	/	-23%[46.1 µM]	-9%
COc1cc(/C(C)=N/N2CCN(Cc3ccc(C)cc3)CC2)ccc1O	-6%	-4%	/	-7%	/	/	/	?
CC(=O)c1cccc(NC(=O)c2ccc(NC(=O)CCS(=O)(=O)c3cccs3)cc2)c1	-3%	9%	/	112%	27%[46.1 µM]	/	-5%[46.1 µM]	-12%
CC1CN(C(=S)NC(=O)c2ccc([N+](=O)[O-])cc2)CC(C)O1 (stereo not given)	11%	0%	-4.9%	0%	8%	5%	-2%[46.1 µM]	9%
Cc1cc(OC2CCCCC2)nc(NCc2ccccc2)n1	-1%	-17%	/	14%	-4%	/	-4%[14.2 µM]	-20%
CC(C)Cn1c(N)c(C(=O)COC(=O)CC23CC4CC(CC(C4)C2)C3)c(=O)n(C)c1=O	-16%	26%	-3.7%	-3%	1.8µM*	23%	8.9µM*	13µM*
Cc1ccc(NC(=O)CCn2cccc2)cc1	12%	-17%	4.1%	-3%	15%	5%	3%	45%[activator]
CCCn1nc2cc(C(=O)NCCc3ccc(C)cc3)ccc2c1OCC	-5%	-95%	-2.9%	0%	/	18%	/	-19%
CCN(CC)C(=O)Cn1cc(C(=O)C(=O)N2CC=C(c3ccccc3)CC2)c2ccccc21	-4%	/	/	1%	-8%	/	7%	12%
Cc1nc(N(C)Cc2ccccc2)c2nnn(Cc3ccccc3)c2n1	-27%	10%	-8.6%	-12%	-24%	0%	0%	-21%
Cc1cc2nc(/N=C(\N)NC(=O)N3c4ccccc4Sc4ccccc43)nc(C)c2cc1C	-17%	16%	-4.3%	-18%&-5%	-3%[46.1 µM]	16µM*	?	-8%&-22%
COc1ccc2nc(C)cc(N3CCN(c4ccccc4)CC3)c2c1	-2%	2%	/	0%	-12%	/	?	-27%
CC(=O)N1CCSc2ccc(S(=O)(=O)NCc3ccccc3)cc21	3%	-3%	/	-13%	?	/	3%[46.1 µM]	41%[activator]
COc1ccc(-c2nc3cc(NC(=S)NC(=O)Cc4ccccc4)ccc3o2)cc1	-28%	1%	-2.3%	7%	-14%	?	?	-4%
CC1SC(=NC(=O)c2ccco2)NC1=O (stereo not given)	2%	0%	-1.3%	11%	-1%	-5%	?	11%
Cn1ccc(C(=O)N/N=C/c2ccncc2)n1	-12%	9%	/	1%	?	/	-21%[46.1 µM]	8%
Cc1cccc(N2CCN(C3=NC(=O)C(Cc4ccccc4)S3)CC2)c1 (stereo not given)	-5%	-16%	?	19%	-11%	-3%	6%	-24%
CC(C)CC(C(=O)Oc1ccc2c3c(c(=O)oc2c1)CCC3)N1C(=O)c2ccccc2C1=O (stereo not given)	-2%	5%	0.7%	-7%	/	-7%	/	-8%
COc1ccc(NC(=O)c2ccc3c(c2)nnn3C2CCCC2)cc1Cl	/	/	-0.6%	/	-14%[46.1 µM]	-12%	/	-11%
CCC(Cn1nnc2ccccc2c1=O)NC(=O)Nc1cc(Cl)ccc1OC (stereo not given)	/	/	-0.7%	/	11%[46.1 µM]	2%	?	1%

Next section:
SMILES	SARS PLP yeast	NS1 inh	Cruzain Triton	RE007 growth inh	Lassa entry inh	Cruzain inh noDet	Marburg entry inh	StopGo reporter
Cc1ccccc1CCNC(=O)C1CCN(S(=O)(=O)c2ccc(-n3cnnn3)cc2)CC1	-2%	-3%	-3.2%	-11%	2%	-1%	4%	12%
Cc1ccc(CCSc2ccc(C(C)C)cc2)cn1	30%	-16%	-3.5%	0%	?	16%	-7%	3%
CCOC(=O)C1(Cc2ccc(Cl)cc2)CCN(C(=O)c2cnc(C)cn2)CC1	0%	-9%	/	-1%	/	/	/	0%
Cc1cc2cc3c(cc2nc1SCc1ccccn1)OCCO3	2%	9%	-9.8%	-11%	6%	10%	-13%	31%[activator]
